# KCNQ2 inh: KCNQ2 channel blockers in CHO-K1 cells – cell-based, FluxOR thallium flux, B-score, primary screen (AID 2156); 310,000 tested, 1.1% active; O88943; 20 min; stronger effect = lower value; only compounds with negative scores are shown here; some inactives read as strong as hits; B-score at 10 µM;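 active = fluorescence ratio B-score at most minus 3 library SDs, with starting brightness B-score within 2 library SDs, cut at about -5.5 in these data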
# Target sequence (O88943 whole entry, looked up): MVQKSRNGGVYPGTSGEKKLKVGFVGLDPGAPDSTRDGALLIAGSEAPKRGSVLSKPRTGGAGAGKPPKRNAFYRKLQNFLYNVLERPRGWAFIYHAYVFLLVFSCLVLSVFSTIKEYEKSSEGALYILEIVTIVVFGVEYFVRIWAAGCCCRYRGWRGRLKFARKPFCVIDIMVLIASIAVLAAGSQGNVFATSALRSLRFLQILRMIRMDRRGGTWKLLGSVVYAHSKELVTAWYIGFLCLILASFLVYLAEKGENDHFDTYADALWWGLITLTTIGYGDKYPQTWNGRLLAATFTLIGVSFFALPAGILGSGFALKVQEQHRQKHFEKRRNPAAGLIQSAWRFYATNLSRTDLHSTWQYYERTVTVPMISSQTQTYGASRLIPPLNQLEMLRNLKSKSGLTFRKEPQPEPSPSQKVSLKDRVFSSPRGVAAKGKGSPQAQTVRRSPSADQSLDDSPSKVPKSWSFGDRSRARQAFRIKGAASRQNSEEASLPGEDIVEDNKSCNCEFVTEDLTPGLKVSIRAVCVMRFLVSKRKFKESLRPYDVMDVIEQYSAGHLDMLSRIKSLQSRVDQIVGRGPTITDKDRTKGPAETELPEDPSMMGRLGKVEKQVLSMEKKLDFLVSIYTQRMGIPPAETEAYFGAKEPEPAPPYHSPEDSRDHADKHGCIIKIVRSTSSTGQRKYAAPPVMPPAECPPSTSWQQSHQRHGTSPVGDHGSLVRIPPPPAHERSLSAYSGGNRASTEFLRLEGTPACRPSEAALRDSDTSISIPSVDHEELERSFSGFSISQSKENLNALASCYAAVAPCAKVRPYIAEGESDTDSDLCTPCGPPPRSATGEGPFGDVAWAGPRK
# KCNQ2 inh baseline: second read-out of KCNQ2 inh, no call of its own (marks repeat the call); B-score; measured here: initial fluorescence intensity artifact check;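 brightness before thallium and not channel activity; 0 = typical well and far values either way flag optical interference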
# * marks the source's active call; other numbers are inactive results; i = inactive; & = joins results of further samples. A portion of the library; count on the stated rates, not on these rows.
# A first look, 18 compounds:
SMILES,KCNQ2 inh,KCNQ2 inh baseline
COc1ccc(-c2cc(C3CC3)nc(N)c2C#N)cc1,i,-2.4
COc1cccc(NC(=O)CCC(=O)Nc2cccc(OC)c2)c1,i,0.02
Cn1c(=O)c2c(nc(NCCCO)n2C/C=C/c2ccccc2)n(C)c1=O,i,0.2
CCc1ccc(CN(C)C(=O)CCc2nnc(CCc3ccccc3OC)o2)nc1,i,1.1
CN(C)S(=O)(=O)c1ccc(C(=O)NCc2nc3ccccc3s2)cc1,i,0.29
Cc1cc(-c2nnc3n2N=C(c2ccccc2)CS3)n[nH]1,i,4
COC(=O)c1sccc1-n1cccc1C(=O)C(=O)N1CCCC1,i,0.69
CC(C)Sc1nc2ccccc2[nH]1,i,0.01
O=C(c1ccc(Cl)cc1Cl)c1ncc(C(F)(F)F)cc1Cl,i,1.3
COc1ccc(S(=O)(=O)N2CCC(C(=O)NCCC(=O)NC3CC3)CC2)cc1,i,0.53
CCOc1ccccc1OCCCC(=O)NC1CCCc2ccccc21 (stereo not given),i,2.1
COc1cc2nc(N(CCN(C)C)C(=O)c3ccc4ccccc4c3)sc2cc1OC,i,1.1
Cc1ccc(-c2nnc(SCC(=O)N3CCN(c4ccccc4)CC3)o2)cc1,i,0.02
CCOC(=O)CN1C(=O)C(=O)c2cccc(C)c21,i,0.87
CCCNC(=O)[C@H](Cc1c[nH]c2ccccc12)NC(=O)c1ccccc1Cl,i,0.09
Cc1cccc(N2C(=O)Cc3ccccc3C2=O)c1,i,1
CCN(CC)c1ccc(/C=N/Nc2nc(C)cc(C)n2)c(O)c1,i,2.4
COc1ccc(OC)c(CC(NC(C)=O)C(=O)NC2CCN(c3c(Cc4ccccc4)c(C)nc4ncnn34)CC2)c1 (stereo not given),i,-0.49

# This part in full, from the start:
SMILES,KCNQ2 inh,KCNQ2 inh baseline
COc1ccc(-c2cc(C3CC3)nc(N)c2C#N)cc1,i,-2.4
COc1cccc(NC(=O)CCC(=O)Nc2cccc(OC)c2)c1,i,0.02
Cn1c(=O)c2c(nc(NCCCO)n2C/C=C/c2ccccc2)n(C)c1=O,i,0.2
CCc1ccc(CN(C)C(=O)CCc2nnc(CCc3ccccc3OC)o2)nc1,i,1.1
CN(C)S(=O)(=O)c1ccc(C(=O)NCc2nc3ccccc3s2)cc1,i,0.29
Cc1cc(-c2nnc3n2N=C(c2ccccc2)CS3)n[nH]1,i,4
COC(=O)c1sccc1-n1cccc1C(=O)C(=O)N1CCCC1,i,0.69
CC(C)Sc1nc2ccccc2[nH]1,i,0.01
O=C(c1ccc(Cl)cc1Cl)c1ncc(C(F)(F)F)cc1Cl,i,1.3
COc1ccc(S(=O)(=O)N2CCC(C(=O)NCCC(=O)NC3CC3)CC2)cc1,i,0.53
CCOc1ccccc1OCCCC(=O)NC1CCCc2ccccc21 (stereo not given),i,2.1
COc1cc2nc(N(CCN(C)C)C(=O)c3ccc4ccccc4c3)sc2cc1OC,i,1.1
Cc1ccc(-c2nnc(SCC(=O)N3CCN(c4ccccc4)CC3)o2)cc1,i,0.02
CCOC(=O)CN1C(=O)C(=O)c2cccc(C)c21,i,0.87
CCCNC(=O)[C@H](Cc1c[nH]c2ccccc12)NC(=O)c1ccccc1Cl,i,0.09
Cc1cccc(N2C(=O)Cc3ccccc3C2=O)c1,i,1
CCN(CC)c1ccc(/C=N/Nc2nc(C)cc(C)n2)c(O)c1,i,2.4
COc1ccc(OC)c(CC(NC(C)=O)C(=O)NC2CCN(c3c(Cc4ccccc4)c(C)nc4ncnn34)CC2)c1 (stereo not given),i,-0.49
Cc1c(N=Cc2nc3ccccc3n2C)c(=O)n(-c2ccccc2)n1C,i,-1.1
CN1CCN(NC(=O)Nc2ccc(Br)cc2)CC1,i,-0.94
Cc1ccc(C)c(OCCC(=O)OCC(=O)N(C)c2c(N)n(Cc3ccccc3)c(=O)[nH]c2=O)c1,i,1
O=C(CC(Nc1ccccc1)C(=O)O)c1ccccc1 (stereo not given),i,-0.13
CCN1CCN(C(=S)Nc2cccc([N+](=O)[O-])c2)CC1,i,0.03
NNC(=O)c1oc2nc(-c3ccccc3)cc(-c3ccco3)c2c1N,i,0.31
Cc1cccc(-n2nnnc2-c2cnccc2C(F)(F)F)c1C,i,-0.39
SMILES,KCNQ2 inh,KCNQ2 inh baseline
CCCCC(=O)Nc1ccc(NC(=S)NC(=O)CCCCl)cc1OC,i,-1.1
COc1ccccc1-n1c(SCC(=O)N2CCCCC2)nc2cccnc21,i,0.53
O=C(N/N=C\c1ccccc1F)c1ccc(-c2ccccc2)cc1,i,-0.01
C=CCn1c(=NC(=O)C2COc3ccccc3O2)sc2cccc(OC)c21 (stereo not given),i,-0.15
COc1cccc(C2CC(C(F)(F)F)n3ncc(C(=O)NCC4CCCO4)c3N2)c1 (stereo not given),i,-3.2
COc1ccc(NC(=O)CC(C(=O)O)C(C)c2ccccc2)cc1 (stereo not given),i,-0.49
O=C1c2ccccc2NC(c2cn[nH]c2-c2ccc(Cl)cc2)N1O (stereo not given),i,3.5
C[N+]1(C2CCC3CCC2C3O)CCCC1 (stereo not given),i,1.4
O=C(CSc1nc2ccccc2n1CCc1ccccc1)N1CCOCC1,i,1.2
O=C1COc2ccc(C(=O)COC(=O)Cc3ccccc3F)cc2N1,i,-0.97
Cc1ccc2oc(=O)cc(CN3CCC(C)CC3)c2c1,i,-1.1
Cc1ccc(C)c(C(=O)OCC(=O)N(C)c2ccccc2)c1,i,0.81
CNC(=O)N(O)C1N(c2ccccc2)C(=S)SC1(C)C (stereo not given),i,-0.85
O=C(CCS(=O)(=O)c1ccc(Br)cc1)NCCc1ccccc1,i,0.51
CCCCc1oc2ccccc2c1C(=O)c1cc(I)c(OCCN(CC)CC)c(I)c1,i,0.68
CC1(C)S[C@@H]2[C@H](NC(=O)Cc3ccccc3)C(=O)N2[C@H]1C(=O)O,i,-0.86&-0.07
CCOC(=O)c1c(/N=C/N(C)C)sc(/C=N/Nc2ccccc2)c1-c1ccccc1,i,-1.9
O=S(=O)(Cc1cc(Oc2ccccc2)nc(-c2ccccc2)n1)c1ccccc1,i,2.3
Nc1nc2n(n1)C(=O)CC(c1ccccc1[N+](=O)[O-])N2 (stereo not given),i,4.9
CCOC(=O)/C=C1\SCC(=O)N1CC(=O)NC(C)c1ccccc1 (stereo not given),i,0.73
Cc1ccc(Nc2nnc(C)c3ccccc23)c(C)c1,i,-0.56
CC(=O)Nc1ccc(NC(=O)CSC2=NS(=O)(=O)c3cc(F)ccc3N2)cc1,i,2.1
O=C(Nc1ccc2c(c1)OCO2)c1ccc(S(=O)(=O)N2CCCC2)cc1,i,-0.74
CCOC(=O)c1ccc(NC(=S)NCCCN2CCN(C3CCCCC3)CC2)cc1,i,-0.1
O=C(CN1CCN(Cc2ccc3c(c2)OCO3)CC1)N1CCc2[nH]c3ccc(F)cc3c2C1,i,0.87
SMILES,KCNQ2 inh,KCNQ2 inh baseline
CC(C)CN1CCN(Cc2cccn2-c2ccccn2)CC1CCO (stereo not given),i,0.82
O=C(NCCN1C(=O)S/C(=C\c2ccccc2F)C1=O)C1=COCCO1,i,-1.3
CC12OC1C1(O)CCCC1=CC2=O (stereo not given),i,1.8
O=C1OCCC1Sc1nc2ccccc2n1-c1ccccc1 (stereo not given),i,0.02
Cc1ccc(Nc2nc(N3CCOCC3)nc(N3CCOCC3)n2)cc1,i,0.75
Cc1ccc(C2N(c3cccc(Cl)c3)C(=O)C3CCCN32)o1 (stereo not given),i,0.08
Cc1c(CC(=O)NCCCCCC(=O)O)c(=O)oc2cc3occ(-c4ccccc4)c3cc12,i,-1.3
Fc1ccc(-c2[nH]ncc2-c2nnnn2-c2ccccc2)c(F)c1,i,2.3
COc1ccc(C(=O)NCC(c2cccs2)N2CCc3ccccc32)c(OC)c1 (stereo not given),i,0.53
Cc1ccccc1N=C(NO)c1cccnc1,i,1.3
CC(C)Cc1cc(C(=O)N2CCN(c3ccc(F)cc3)CC2)no1,i,-0.09
CC1(C)CC(=O)C=C(NCCN2CCN(C(=S)NC3CCCCC3)CC2)C1,i,-0.87
CCCc1nc2ccccc2c(=O)n1CC(=O)c1ccc(OC)cc1,i,-0.02
COCCn1c(SCC(=O)NCCc2ccccc2)nc2c([nH]c3ccccc32)c1=O,i,0.77
O=C(O)CSc1nnc(CNc2ccccc2Cl)n1-c1ccccc1,i,-0.6
CC(NC(=O)CCC(=O)NCc1ccc(F)cc1)c1ccccc1 (stereo not given),i,2.2
Cn1cc(C(=O)C(=O)N2CCc3ccccc32)c2ccccc21,i,1
CN(C)c1ccc(C(C(=O)NC2CCCCC2)N(Cc2ccco2)C(=O)c2snc(C(N)=O)c2N)cc1 (stereo not given),i,-1.6
Cn1c(=O)[nH]c(=O)c2c1nc(NC1CCCC1)n2Cc1ccccc1,i,-0.29
O=C(CC1S/C(=N/N=C/c2cccs2)NC1=O)Nc1ccccc1F (stereo not given),i,-0.09
CCc1ccc(N(CC(=O)NCc2ccc3c(c2)OCO3)C(=O)c2csnn2)cc1,i,0.83
CC(=O)Nc1ccc(S(=O)(=O)Nc2nccc(C)n2)cc1,i,0.71
CC(Oc1cccc(Cl)c1)c1ccnc2nc(/N=C/N(C)C)nn12 (stereo not given),i,2.3
Cn1cc(/C=C/c2nc3ccccc3c(=O)n2-c2cccc([N+](=O)[O-])c2)c2ccccc21,i,-2.1
COCCn1c(=O)sc2ccccc2c1=O,i,0.82
SMILES,KCNQ2 inh,KCNQ2 inh baseline
COc1ccc(N2CCN(C(=O)COC(=O)CNC(=O)c3ccc(C)cc3)CC2)cc1,i,-1.3
Cc1ccccc1NC(=S)NC(=O)c1cncc(Br)c1,i,0.73
COc1ccc2ccccc2c1CNC(=O)CC1C(=O)NCCN1CC(C)(C)C (stereo not given),i,-1.4
CCc1cc(CNC(=O)C2CCC(=O)N(CCc3cccc(F)c3)C2)on1 (stereo not given),i,-0.94
CN(C)C(=N)c1n[nH]nc1SCc1ccc(Cl)c(Cl)c1,i,1.5
O=C(NCC1CCCO1)c1cccc(S(=O)(=O)N2CCOCC2)c1 (stereo not given),i,0.38
CCOC(=O)N1CCN(C(=O)C2c3cc(OC)c(OC)cc3C(=O)N3CCc4ccccc4C23)CC1 (stereo not given),i,0.36
COc1ccc(S(=O)(=O)Nc2ccncc2)c(C)c1C,i,1.3
COc1ccc(CCNc2cc(N3CCN(C(=O)c4ccccc4OC)CC3)ccc2[N+](=O)[O-])cc1OC,i,0.85
Cc1ccc(S(=O)(=O)C(C#N)c2nc3ccccc3nc2N2CC(C)OC(C)C2)cc1C (stereo not given),i,-0.34
Cc1ccc(S(=O)(=O)N2CCOCC2)cc1NC(=O)COC(=O)COc1cccc2c1OC(C)(C)C2,i,1.2
CN1CCN(c2nc3nonc3nc2N2CCN(C)CC2)CC1,i,-1.5
Cc1[nH]n(-c2ccccc2)c(=O)c1/C=N/c1nn[nH]n1,i,1.5
COc1cccc(C2CC(c3ccccc3Cl)n3ncnc3N2)c1 (stereo not given),i,2.1
Cc1ccc(-c2nnn(CC(=O)N(c3ccc4c(c3)OCCO4)C(C(=O)NCC3CCCO3)c3ccc(F)cc3)n2)o1 (stereo not given),i,1.3
COc1ccc(C=C2c3ccccc3C(=O)c3ccccc32)c(OC)c1,i,1.9
COc1cc(C2=NOC(C(=O)N3CCN(c4ccc(F)cc4)CC3)C2)cc(OC)c1OC (stereo not given),i,0.86
CN(CC(=O)Nc1ccccc1Cl)C(=O)COC(=O)c1ccc(Cl)nc1,i,1.6
Clc1ccc(-c2cn3nc4c(nc3n2)CCCC4)cc1,i,1.3
CS(=O)(=O)N(CCc1ccccc1)CC(=O)N1CCN(c2ccc(F)cc2)CC1,i,0.14
COc1ccc(CC(=O)NNC2=Nc3cccc4cccc2c34)cc1,i,0.31
O=C(COC(=O)c1ccccc1SCC(=O)N1CCCC1)Nc1ccc(OC(F)F)cc1,i,-0.57
CCOC(=O)C1(Cc2cccc(F)c2)CCN(C2CCOCC2)CC1,i,0.76
CCN(C(=O)c1c(-c2ccccc2Cl)noc1C)C1CCCCC1,i,-0.86
COc1cccc(-c2nnc(NC(=O)c3ccc(S(=O)(=O)N4CC(C)OC(C)C4)cc3)o2)c1 (stereo not given),i,-0.83
SMILES,KCNQ2 inh,KCNQ2 inh baseline
CN(Cc1ccco1)C(=O)C1CCC(=O)N1Cc1ccc(F)cc1 (stereo not given),i,0.44
O=C(NC1CC1)C1CCN(c2ncccn2)CC1,i,0.54
CC1CC(C)CN(C(=O)C(Cc2ccccc2)NC(=O)c2ccccc2)C1 (stereo not given),-7*,-0.01*
CCOC(=O)C[N+](C)(C)CCOC1CC2CCC1(C)C2(C)C (stereo not given),i,0.61
COc1ccc(-n2c(SCC(=O)C(C)(C)C)nc3c(sc(=S)n3-c3ccccc3)c2=O)c(OC)c1,i,1.8
COC(=O)c1nc2ccccc2s1,i,-0.25
CCOc1cc(C(=O)Nc2cc(C)on2)cc(OCC)c1OCC,i,-0.14
O=C(CCNC(=O)c1ccccc1Cl)Nc1cc(S(=O)(=O)N2CCOCC2)ccc1N1CCCC1,i,-0.05
Cn1c(=O)c2c(nc(CN3CCN(c4ccccc4)CC3)n2CCc2ccccc2)n(C)c1=O,i,0.11
CC(C)Oc1ccc(-c2cc(C(=O)NCCN3CCOCC3)c3ccccc3n2)cc1,i,-2.2
CCCCCCn1c(SCC(C)C)nc2c1c(=O)[nH]c(=O)n2C,i,0.04
O=C(CN1C2=NCCN2c2ccccc21)c1cccs1,i,0.97
CCc1ccc2[nH]c(=O)c(CN(Cc3ccccc3OC)Cc3nnnn3Cc3ccco3)cc2c1,i,-0.17
O=C(c1cccs1)c1ccc(-c2cccs2)s1,i,0.36
Cc1ccc(C(=O)NC(=C(Cl)Cl)S(=O)(=O)c2ccc(Cl)cc2)cc1,i,-0.59
O=C(NCCc1ccccc1)C1CCCN1C(=O)Nc1ccc(Cl)cc1 (stereo not given),i,-0.01
CCCCCCCC(=O)OC(CN1CCCCCC1)CN1CCCC1=O (stereo not given),i,0.07
CC(C)(Cc1ccccc1)/[N+]([O-])=C\c1ccccc1,i,-0.07
Cc1ccc(CSc2ccc3nnc(-c4ccccn4)n3n2)cc1,i,-0.03
